Sa RN4220 lethal = kills Staphylococcus aureus RN4220 | S. aureus RN4220 growth, OD600, 16 h | inhibition, % (no concentration beside the values) | 0.33% of 330,000 active;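 active = z-score of -3 or lower and OD600 up to 0.18 on both plates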;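 note: plate controls were untreated cells for no effect and reference antibiotic for full effect; stock transfer was 100 nL into about 80 µL; one replicate is shown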
ugtP null kill = kills S. aureus RN4220 lacking UgtP; S. aureus RN4220 ugtP deletion, OD600 growth, 16 h; some inactives read as strong as hits; AID 1259309; growth inhibition, % (test concentration not listed); 0.54% of 330,000 active;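 active = z-score under -3 and OD600 up to 0.15 on both plates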;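 note: plate controls were untreated wells for no effect and antibiotic for full effect; wells of about 80 µL received 100 nL stock; the first replicate is given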
Mtb hypoxia rep = inhibitors of hypoxia-regulated fluorescent reporter in Mycobacterium tuberculosis. M. tuberculosis hypoxia-regulated fluorescent reporter, fluorescence. fluorescence inhibition, % (concentration not given with the values). 0.1% of 300,000 active;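 active = 35 to 45% if threefold the growth effect, above 45% if 1.5-fold the growth effect; inactive = the rest, general growth blockers included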;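 note: wells of about 50 µL received 100 nL stock; 0% = vehicle wells and 100% = reference inhibitor wells; whole bacteria with a GFP reporter of the hypoxia response; strong numbers were not always called active; many hits fall short of the cut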
PrP 5UTR inh = suppresses PrP 5' UTR mRNA reporter expression; inhibition, % (concentration not given with the values); AID 488862; cell-based PrP 5' UTR mRNA reporter, plate reader; 0.35% of 340,000 active;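 active = every replicate at 50% or more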;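 note: 0 = median of the neutral control wells; tested in H4 reporter cells; numbers are from one replicate; inactives centre near -14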
Bead autofluor = counter-screen for toxin protease inhibitors: compound fluorescence; fluorescence intensity (test concentration not listed); compound autofluorescence counterscreen, microsphere flow cytometry; hits give high values; 3.1% of 360,000 active; AID 624483;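 active = at least 3 SD above the mean of all compounds, about 16000 in these data; inconclusive = too few beads counted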;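 note: 100 nL of 1 mM stock went into each well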
BJeLR viability = kills HRASV12-expressing BJeLR cells. BJeLR (HRASV12) viability, CellTiter-Glo ATP luminescence, 48 h; reference of the scale not given here. inhibition, % (no concentration beside the values). 0.17% of 300,000 active. AID 1554;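 active = replicate mean above 50%; inconclusive = above 50% but judged a plate artefact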;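 note: 50 nL library stock added to about 25 µL; numbers are from one replicate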
Mtb hypoxia rep growth = recorded beside Mtb hypoxia rep, whose call it bears; growth inhibition, %; measured here: M. tuberculosis growth (absorbance);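 0% = vehicle and 100% = reference antibiotic; read after six days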
An asterisk follows results filed as active; ? = inconclusive; . = not tested or not shown; & = joins results of further samples. Compounds as they come; overall some 4% were active at least once.

SMILES	Sa RN4220 lethal	ugtP null kill	Mtb hypoxia rep	Mtb hypoxia rep growth	PrP 5UTR inh	Bead autofluor	BJeLR viability
Cc1ccc(NC(=O)c2ccccc2)cc1C	6.0	-1	.	.	-38	4233	.
Cc1c(Cl)cnc(NC(=O)CSc2n[nH]c(N)n2)c1Cl	5.1	4	0	1	-15	3777	.
O=C(NC1CCCCCC1)c1ccc(N2CCCC2=O)cc1	1.3	-5	4	5	-53	4504	-2
CCCc1ccc(OCc2nc(-c3ccc(NC(=O)c4cccs4)cc3)no2)cc1	1.9	-1	2	-2	-52	2144	5
Cc1c(NS(=O)(=O)c2ccc3nc(COc4ccccc4Cl)[nH]c3c2)c(=O)n(-c2ccccc2)n1C	-2.3	-12	-1	-4	-101	4091	-1
COc1ccc(NC(=O)c2oc3ccc(S(=O)(=O)N4CCOCC4)cc3c2C)cc1	6.1	3	13	12	-37	4193	4
CC(C)CC(=O)Nc1ccc(C(=O)NNC(=O)C(c2ccccc2)c2ccccc2)cc1	-4.7	8	3	11	-18	9288	-2
Cc1ccccc1C(=O)Oc1ccc(Br)cc1C(=S)N1CCCC1	10	5	6	7	2	22492*	0
CCOc1ccc(NC(=O)C/C(C)=N/NC(=O)c2cnccn2)cc1	.	.	.	.	-26	4463	1
COc1cc(C(=O)NC(C)c2ccc3ccccc3c2)cc(Cl)c1O (configuration not stated)	1.3	8	10	5	-18	5407	3
O=c1c(Oc2ccccc2)coc2cc(O)cc(O)c12	7.8	15	.	.	-36	5076	-13
O=C(CSc1nc(-c2cccs2)cc(C(F)(F)F)n1)NCc1ccco1	1.8	12	1	8	-18	6757	5
COC(=O)c1c(C)cc(O)c(C=O)c1O	.	.	.	.	-30	5574	-3
Cc1nc(CSc2nnc(Nc3cccc(C)c3C)s2)cs1	12	-1	9	4	-34	2196	6
COc1cccc(/C=C/C(=C2/C(=O)N(c3ccccc3)N=C2C)c2ccc(C)cc2)c1OC	0.0	-2	8	3	-28	1717	-5
CC(=O)N1CCSc2ccc(S(=O)(=O)Nc3cccc(C)c3)cc21	6.0	2	-4	0	-12	5772	7
Cc1ccc(-c2c(C#N)c(N)nc3c2CCCC3)o1	8.7	2	6	-2	34	3597	-4
CCCCC(=O)NN=Cc1ccc(N2CCOCC2)c([N+](=O)[O-])c1	-0.4	2	-13	0	.	.	.
COc1cccc(NC(=O)C(=O)N/N=C(\C)CC(=O)Nc2ccc(NC(C)=O)cc2)c1	.	.	.	.	-57	5443	-4
Cc1ccc(NC(=O)CSc2nnc(-c3ccccn3)n2N)c(Br)c1	2.9	3	0	7	.	3787	1

Two compounds drawn at random from the list so far:
SMILES	Sa RN4220 lethal	ugtP null kill	Mtb hypoxia rep	Mtb hypoxia rep growth	PrP 5UTR inh	Bead autofluor	BJeLR viability
O=C(NC1CCCCCC1)c1ccc(N2CCCC2=O)cc1	1.3	-5	4	5	-53	4504	-2
Cc1ccc(-c2c(C#N)c(N)nc3c2CCCC3)o1	8.7	2	6	-2	34	3597	-4

(continued)
SMILES	Sa RN4220 lethal	ugtP null kill	Mtb hypoxia rep	Mtb hypoxia rep growth	PrP 5UTR inh	Bead autofluor	BJeLR viability
COc1ccc(C(=O)NCCCN2CCOCC2)cc1Br	-0.4	0	-9	-1	-10	.	-3
CSc1ccc(/C=N\NC(=O)COc2ccc(Cl)cc2Br)cc1	.	.	.	.	-9	17653*	2
CC(=O)NCCC(=O)N1CCCC(N2CCN(c3cccc(Cl)c3)CC2)C1 (configuration not stated)	1.3	9	-1	13	-25	3199	11
Nc1nnnn1/N=C/c1ccc(Cl)cc1	.	.	.	.	-31	3516	-9
Cc1cc(C)nc(Nc2ccccc2F)n1	3.6	10	8	-7	-21	4268	17
COc1cccc(C(=O)O/N=C(\N)CS(=O)(=O)c2ccccc2)c1	2.0	8	-1	5	-21	6166	3
O=C(Nc1ccc(CN2CCCCC2)cc1)c1cccc(Br)c1	2.5	9	16	11	-38	2104	3
CCN(CC)C(=O)CSc1nnc(NC(=O)CCc2ccccc2)s1	3.2	12	9	9	9	2385	-10
NC(=NO)c1cccc(CS(=O)(=O)c2ccccn2)c1	2.2	-4	-4	8	.	.	.
Cc1ccccc1OCCn1ccnc1	2.0	4	8	8	-52	4027	-2
O=S(=O)(c1ccccc1)N1CCN=C1SCc1ccccc1Cl	3.1	-6	12	12	-15	2555	1
Cc1ccc(C)c(S(=O)(=O)Nc2ccc(S(=O)(=O)Nc3onc(C)c3C)cc2)c1	-9.6	2	8	14	-10	3206	-8
Cc1nn(-c2ccccc2)c2c1C(c1ccc(F)cc1)C(C#N)=C(N)O2 (configuration not stated)	5.0	-5	.	.	-1	1904	-3
O=C(Nc1cccnc1)c1cc(-c2cccnc2)nc2ccc(Br)cc12	3.0	-3	-7	-6	0	21271*	2
CCN1CCCC1CNCc1cccc(OC)c1OCc1ccc(F)cc1 (configuration not stated)	1.4	-2	0	-2	-10	2203	1
Cc1c(NC(=O)CSCc2c(F)cccc2Cl)c(=O)n(-c2ccccc2)n1C	7.6	2	9	7	.	.	-6
O=C(Cn1cc(S(=O)(=O)Cc2ccccc2)c2ccccc21)Nc1ccccc1	.	.	.	.	3	2764	-4
CCn1cc(C(=O)NCCN(C)C)c(=O)c2cc(F)c(N3CCN(C)CC3)cc21	4.5	23	13	1	-26	3854	-5
COc1cc(CC(=O)OCC(=O)N2C(C)CCCC2C)cc(OC)c1OC (configuration not stated)	-5.2	-12	-8	3	-8	3690	-2
CC(C)(Oc1ccc(Cl)cc1)C(=O)Nc1cccc(S(=O)(=O)NC2=NCCC2)c1	2.2	1	-8	4	.	?	.
Cc1cccn2c(=O)c(/C=C(\C#N)C(N)=O)c(N3CCN(Cc4ccc5c(c4)OCO5)CC3)nc12	.	.	.	.	-6	1909	-11
COc1ccc(NC(=O)CN(C)C(=O)c2ccc(N3CCCCCC3)c([N+](=O)[O-])c2)cc1	4.1	7	4	4	-17	?	-1
CC(NC(=O)/C(C#N)=C/c1ccco1)c1ccccc1 (configuration not stated)	1.5	9	2	2	-22	4303	9
CCCCN(CC)C(=O)Cc1c(C(=O)O)[nH]c2ccc(Cl)cc12	12	-9	.	.	7	2123	.
O=C1CCCN1CC(CN1CCOCC1)Sc1nnnn1-c1ccccc1 (configuration not stated)	7.1&1.3	2&3	6	1	-11&-22	4113	-5
COC(=O)CCN(C(=O)C1C2CC3CC(C2)CC1C3)c1ccccn1 (configuration not stated)	8.6	5	6	8	-8	3715	-5
COCCNC(=O)C(=O)NNC(=O)COc1ccc(OC)cc1	.	.	.	.	-18	2232	-1
CSc1ccccc1OCc1cc(C(=O)N2CCCC(C)C2)no1 (configuration not stated)	2.4	1	9	5	-51	5649	-10
O=C(CSc1nnc(-c2ccccc2O)o1)N1CCCCC1	4.2	0	4	2	-19	3572	6
CC(=NN1CCCCCC1)c1c(O)n(-c2ccc(C)cc2)c(=O)[nH]c1=O	8.3	-2	5	6	.	.	.
CC(Oc1ccccc1F)C(=O)NNC(=O)CCNC(=O)c1ccccc1Cl (configuration not stated)	0.3	0	3	12	-12	5771	8
Cc1cccc(-c2nc(CSCC(=O)N3CCN(c4ccccn4)CC3)c(C)o2)c1	15	-1	0	3	-10	16627*	-6
CCCC(c1nnnn1C1CCCCC1)N1CCN(C2CCCC2)CC1 (configuration not stated)	5.6	-1	.	.	-22	3401	3
Brc1cccc(OCCn2ccnc2)c1	-1.5	-3	.	.	-5	4510	-7
COC(=O)C1CCN(S(=O)(=O)c2cc3c4c(c2)CCN4C(=O)CC3)CC1	0.3	-1	2	12	1	6414	0
NC(=O)c1cc(Cl)cn(-c2ccccc2)c1=O	5.9	1	0	2	-11	4200	3
CCc1sc(C(=O)NCc2ccccc2)cc1C	5.9	9	18	18	-7	3368	-3
O=C(N/N=C/c1cc(Cl)cc([N+](=O)[O-])c1O)c1cc(-c2ccccn2)nc2ccccc12	.	.	.	.	4	4939	-1
O=S(=O)(NCc1ccc2c(c1)OCO2)c1cccc(S(=O)(=O)N2CCOCC2)c1	-0.5	-7	.	.	-12	3831	0
Cc1cc(C)n(Cc2cccc(C(=O)N/N=C/c3cccnc3)c2)n1	.	.	.	.	-7	5977	-9

Record cards, from the list above:
CCCCN(CC)C(=O)Cc1c(C(=O)O)[nH]c2ccc(Cl)cc12 is entered as Sa RN4220 lethal: 12; ugtP null kill: -9; Mtb hypoxia rep: .; Mtb hypoxia rep growth: .; PrP 5UTR inh: 7; Bead autofluor: 2123; BJeLR viability: .
CC(Oc1ccccc1F)C(=O)NNC(=O)CCNC(=O)c1ccccc1Cl (configuration not stated) is entered as Sa RN4220 lethal: 0.3; ugtP null kill: 0; Mtb hypoxia rep: 3; Mtb hypoxia rep growth: 12; PrP 5UTR inh: -12; Bead autofluor: 5771; BJeLR viability: 8

(further entries)
SMILES	Sa RN4220 lethal	ugtP null kill	Mtb hypoxia rep	Mtb hypoxia rep growth	PrP 5UTR inh	Bead autofluor	BJeLR viability
CN(Cc1ccccc1)S(=O)(=O)c1ccc(Cl)c(C(=O)NCc2ccncc2)c1	2.2	3	-3	11	-15	6433	2
Cc1cccc(C)c1-n1nnnc1SCC(=O)c1c(N)n(C2CC2)c(=O)[nH]c1=O	4.3	0	3	-4	4	3793	.
CNC(=O)c1oc(-c2ccccc2)nc1C	-0.7	4	2	4	-15	3392	-1
O=C(c1ccc(COCC(F)(F)F)o1)N1CCCC1	5.8	22	19	18	-28	3142	19
Cc1ccc(S(=O)(=O)Nc2ccc(-n3cnnn3)cc2)cc1	3.7	-3	-8	-12	0	4297	-5
COC(C[C@@H]1O[C@H]1C(=O)[C@@H](C)OCc1ccccc1)OC	.	.	.	.	-8	3787	0
CCOC(=O)C1CCN(C(=O)Nc2cccc(OC)c2)CC1	2.9	9	2	6	-13	3134	-8
COc1ccc(NC(=O)CC2C(=O)N(c3ccc(OC)cc3)C(=O)N2C(C)C)cc1 (configuration not stated)	3.5	-1	6	6	-10	10462	5
CCS(=O)(=O)c1ccc(O)c(NC(=O)COc2ccc(Br)cc2)c1	6.6	-3	1	-2	-20	4576	-8
CC(=O)c1ccc(NC(=O)C(C)OC(=O)CCCN=C2NS(=O)(=O)c3ccccc32)cc1 (configuration not stated)	1.2	6	-2	-3	-10	.	11
O=C(CN1C(=O)NC(Cc2c[nH]c3ccccc23)C1=O)NCCc1ccccc1 (configuration not stated)	-0.3	12	1	8	8	2733	4
O=c1c2ccccc2nc(/C=C/c2ccc(F)cc2)n1-c1ccccn1	10	-5	7	0	.	.	-6
Cc1ccc(CN2CCN(/N=C\C=C\c3ccccc3)CC2)cc1	.	.	.	.	-33	5062	4
CCSc1cnn(-c2ccccc2)c(=O)c1Cl	3.0	-2	-11	2	-37	3444	2
CN(Cc1ccno1)Cc1cn(Cc2ccccc2)nc1-c1ccc2c(c1)OCO2	-0.6	14	-3	5	-15	2396	-3
O=C(O)c1ccccc1-n1ncc2c1/C(=C/c1ccc(Cl)cc1)CC2	17	17	-4	7	.	.	-2
COc1ccc(/C=C/C(=O)NCc2ccccn2)cc1	6.3	-2	10	17	-10	2205	-11
O=C(CN1C2=NCCN2c2ccccc21)C12CC3CC(CC(C3)C1)C2	-1.1	-14	.	.	13	4644	16
COc1ccc(NC(=O)CSc2nnc(-c3ccccn3)n2Cc2ccco2)cc1OC	4.7	-2	14	13	3	9262	-3
COc1ccccc1CCNC(=O)c1ccc(NC(=O)CC2SC(N3CCCC3)=NC2=O)cc1 (configuration not stated)	-2.2	-1	0	9	-17	5897	6
CC(=O)N(C)Cc1ccc(C(=O)CSc2nnc(C3CC3)n2C2CC2)cc1	2.6	3	15	-2	-21	3379	.
CCN1CCc2nc(NC(=O)Cc3ccc4c(c3)OCCO4)sc2C1	3.2	6	4	7	-2	?	.
C=CCn1c(-c2ccc(C)cc2)nc2ccccc21	3.5	8	2	2	1	15736	-1
O=C(NC(Cc1ccccc1)C(=O)O)c1ccc(S(=O)(=O)N2CCCC2)cc1 (configuration not stated)	-0.5	-2	0	0	6	10284	-12
C/C(=N/NC(=O)c1ccoc1C)c1ccc(N2CCOCC2)cc1	.	.	.	.	-13	2615	0
CN(C)C(=O)c1ccc(Nc2nnc(-c3ccc(O)cc3)c3ccccc23)cc1	-1.1	12	-7	-7	-30	3356	-7
CCOC(=O)c1c(O)c(Cl)c(C)[nH]c1=O	6.9	12	-8	-1	6	3811	-2
CC(Sc1ccc(Cl)cc1)C(=O)Nc1ccccc1-c1ccccc1 (configuration not stated)	-1.4	4	-6	18	-23	2009	4
O=C(NCc1cccnc1)Nc1ccc(Br)cc1	-0.6	5	11	6	-37	4464	2
